GLA inh pH 4.5: qHTS Assay for Inhibitors of Human alpha-Galactosidase at pH 4.5. Alpha-galactosidase A (Homo sapiens), P06280. purified enzyme, 4-MU-alpha-Gal fluorescence, pH 4.5. activity change, negative = inhibition, % at 105 µM. 230,000 tested, under 10 active. AID 1467, 2008; inconclusive = small, poorly fitted or top-dose-only inhibition, or a rising curve; inactive = flat fitted curve, though single readings scatter; no compound was filed as active;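 further: 0% = full activity with enzyme and -100% = basal without enzyme; dose as in the result columns while the protocol names 77 µM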
Target sequence (P06280 whole entry, looked up): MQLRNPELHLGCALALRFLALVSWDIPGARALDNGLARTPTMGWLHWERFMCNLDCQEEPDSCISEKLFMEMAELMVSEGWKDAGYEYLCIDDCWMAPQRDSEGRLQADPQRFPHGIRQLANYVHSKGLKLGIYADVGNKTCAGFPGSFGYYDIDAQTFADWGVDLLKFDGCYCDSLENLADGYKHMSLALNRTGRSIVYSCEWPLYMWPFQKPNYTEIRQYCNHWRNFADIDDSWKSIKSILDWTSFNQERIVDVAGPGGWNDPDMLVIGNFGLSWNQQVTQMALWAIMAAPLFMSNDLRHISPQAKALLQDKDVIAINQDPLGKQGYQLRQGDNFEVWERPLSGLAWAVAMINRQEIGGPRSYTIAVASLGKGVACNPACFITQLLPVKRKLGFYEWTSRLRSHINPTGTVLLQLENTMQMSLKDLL
* hit, by the source's call; ? = inconclusive; & = joins results of further samples. This is a subset; the hit share may differ from the screen's.

compound,GLA inh pH 4.5
C=C(C(C)=O)C(O)c1cccc(OC)c1 (stereo not given),2.9
Nc1ncnc2nc(-c3ccc(N4CCOCC4)nc3)cc(-c3cccc(Br)c3)c12,-23.8
C[C@H](NC[C@H](O)CP(=O)(O)CC1CCCCC1)c1ccc(Cl)c(Cl)c1,-1.0
CCCn1c(-c2ccc(F)cc2)nc2c(NC(C)CN(C)C)nc(C)nc21 (stereo not given),-5.4
O=C(O)CCC/C=C\C/C=C\C=C\[C@@H](O)C/C=C\CCCCCO,-3.2
O=C1CC(c2ccccc2O)Oc2ccc(O)cc21 (stereo not given),0.5
O=C(NCC1CC1)[C@H]1C[C@@H]1[C@H](NP(=O)(c1ccccc1)c1ccccc1)c1ccccc1,-0.2
Cc1ncc2c(c1O)COP(=O)(O)OC2,-7.7

4 of the entries above in order of their number in GLA inh pH 4.5, largest number first:
compound,GLA inh pH 4.5
O=C1CC(c2ccccc2O)Oc2ccc(O)cc21 (stereo not given),0.5
O=C(NCC1CC1)[C@H]1C[C@@H]1[C@H](NP(=O)(c1ccccc1)c1ccccc1)c1ccccc1,-0.2
C[C@H](NC[C@H](O)CP(=O)(O)CC1CCCCC1)c1ccc(Cl)c(Cl)c1,-1.0
O=C(O)CCC/C=C\C/C=C\C=C\[C@@H](O)C/C=C\CCCCCO,-3.2

New compounds follow.
compound,GLA inh pH 4.5
CCCCS(=O)(=O)N1C2=NC(C(=O)OC)=C(C(=O)OC)[C@@H]3Nc4ccccc4[C@]23C[C@H]1C(=O)OC,6.3
CC#C[C@]1(O)CC[C@H]2C3CCC4=CC(=O)CCC4=C3[C@@H](c3ccc(N(C)C)cc3)C[C@@]21C (stereo not given in full),-8.7
C[C@H](CCC(=O)O)[C@H]1CC[C@@H]2[C@H]3CC[C@H]4C[C@@H](O)CC[C@@]4(C)[C@H]3CC[C@]21C,3.0
CCc1ccc2c(O)c3c(cc2c1C(=O)OC)C(=O)c1c(O)ccc(O)c1C3=O,-0.3
CC(C)=CC1C(CO)C1(C)C (stereo not given),-5.4
C=C(C)C(=O)/C=C/CCC/C=C/C(=O)OCC,-5.5
COc1ccc(-c2ccc(-c3cc(=O)oc4cc(C)cc(C)c34)cc2)cc1,0.4
CC1(C)CCC[C@@]2(C)C1CC[C@@](C)(O)[C@@H]2CC[C@@](C)(O)C1CO1 (stereo not given in full),-1.6

The results go on.
compound,GLA inh pH 4.5
Oc1ccc(OCc2ccccc2)cc1,-13.1
Cc1cccc(CNc2cc(-c3cccc(C#N)c3)ncn2)c1,-11.8
O=C1OC2(c3ccc(O)cc3Oc3cc(O)ccc32)c2ccccc21,-27.5
COC(=O)[C@@]1(Cc2ccccc2)[C@H]2c3cc(C(=O)N(C)C)n(CCF)c3C[C@H]2CN1C(=O)c1ccccc1,-3.0
CCC(=C(CC)c1ccc(O)cc1)c1ccc(O)cc1,-1.8
CC(=O)/C=C\C1[C@]2(C)CCCC(C)(C)C2CC[C@@]1(C)O (stereo not given in full),-1.5
CC(C)=CCOc1cc2oc(=O)ccc2cc1O,-0.4
CC(C)CC1C(=O)N2CCCC2C2(O)O[C@@](NC(=O)C3C=C4c5cccc6[nH]c(Br)c(c56)CC4N(C)C3)(C(C)C)C(=O)N12 (stereo not given in full),-3.2

(further entries)
compound,GLA inh pH 4.5
CCC(=O)[C@@]1(C)[C@H](C)C[C@@H]2[C@@H]3CCC4=CC(=O)C=C[C@@]4(C)[C@H]3[C@H](O)C[C@]21C,2.8
COc1ccc(C2/C=C\CC(NC(=O)OCC3c4ccccc4-c4ccccc43)CC(=O)N2Cc2cccc(F)c2)cc1 (stereo not given),-4.2
Cn1c(=O)[nH]c(=O)c2[nH]cnc21,-2.8
OC(CN1CCC(Cc2ccc(F)cc2)CC1)c1ccc(Cl)cc1 (stereo not given),-7.9&-14.0
CN1CCN(c2cc(-c3ccccc3C(F)(F)F)ncn2)CC1,-4.2
CCC[C@@H]1O[C@@H]2C[C@@H]3[C@H]4CCC5=CC(=O)C=C[C@@]5(C)[C@H]4[C@H](O)C[C@@]3(C)[C@@]2(C(=O)CO)O1,-4.5
CSc1ncnc2c1ncn2C1OC(CO)C(O)C1O (stereo not given),-2.3
CSc1nc(N)c2ncn([C@H]3O[C@H](COP(=O)(O)OP(=O)(O)O)[C@@H](O)[C@@H]3O)c2n1,-2.8

Additional results:
compound,GLA inh pH 4.5
CC(C)[C@H]1COC(c2cccc([N+](=O)[O-])c2)=N1,-2.6
CCOC(=O)C1=C(C(=O)OCC)C(C(=O)OCC)N(S(=O)(=O)C(F)(F)F)c2ccccc21 (stereo not given),-11.8
COC1=CC(=O)C(C(=O)c2ccccc2)=CC1=O,-3.5
FC(F)(F)c1cccc(-c2noc(-c3cc(-c4ccccc4)c(C(F)(F)F)s3)n2)c1,3.1
NC[C@@H]1O[C@H](c2ccccc2)Cc2c1ccc(O)c2O,2.4
COc1ccc2nc3c(cc2c1)Cc1ccccc1-3,-7.9
C=C(C)C(=O)c1ccc2c(c1)OCO2,3.8
C=C(C(C)=O)C(O)/C=C/c1ccco1 (stereo not given),-7.1

New compounds follow
compound,GLA inh pH 4.5
CC[C@@H]1Cn2c(c3nc(-c4ccccc4)nc-3n(C)c2=O)N1,3.8
C#CCCOC(=O)N1C2=NC(C(=O)OC)=C(C(=O)OC)[C@@H]3N(CC#CC)c4ccccc4[C@]23C[C@H]1C(=O)OC,-3.0
NC(=O)CC[C@H](N)C(=O)O,-1.6&-4.2
CCCCC/C=C\C/C=C\C[C@H](O)/C=C/C=C\CCCC(=O)O,-3.4
Cc1ccc(OCC(O)C(C)NC(C)C)c2c1CCC2 (stereo not given),3.8
COC(=O)c1ccc2c(c1)c(I)c(-c1ccc(OC)cc1)n2C,-13.5
O=C(OC1Cc2c(O)cc(O)cc2OC1c1cc(O)c(O)c(O)c1-c1c(C2Oc3cc(O)cc(O)c3CC2O)cc(O)c(O)c1O)c1cc(O)c(O)c(O)c1 (stereo not given),0.4
O=C(OC[C@@H]1O[C@@](O)(COC(=O)c2cccnc2)[C@H](OC(=O)c2cccnc2)[C@H]1OC(=O)c1cccnc1)c1cccnc1,-2.7

(next part)
compound,GLA inh pH 4.5
CC1=CC2C(C)(C)CC(=O)C[C@]2(C)CC1COc1ccc2c(c1)CC(=O)C=C2 (stereo not given in full),-7.5
CCCCC1=CC2=C(c3ccco3)C(=O)C(C)(OC(=O)c3ccc(OC)cc3)C(=O)C2=CN1CCc1c[nH]c2ccccc12 (stereo not given),1.9
COC/C=C/C1=CC2=CC(=O)C(C)(OC(=O)CCc3ccccc3)C(=O)C2=CO1 (stereo not given),-7.0
CC(=O)OC1CCC23CC1(C)CCC2C(C)(C)CC3OC(C)=O (stereo not given),-9.3
CC1(C)CC=C(O[Si](C)(c2ccccc2)c2ccccc2)CC1,-7.2
Cc1cccc(CNc2nc(-c3cccc(NS(C)(=O)=O)c3)nc3ccccc23)c1,-28.2
COc1ccc(S(=O)(=O)N(CCO)c2ccccc2CN(C)CC=Cc2ccc(Cl)cc2)cc1,-18.9
CN(CCOc1ccc(C[C@H](Nc2ccccc2C(=O)c2ccccc2)C(=O)O)cc1)c1ccccn1,-7.2&-4.4

Following part
compound,GLA inh pH 4.5
CC(C)C[C@@H](CC(=O)N[C@@H](CCC(=O)O)CC(=O)O)NC(=O)[C@@H]1CCCC[C@H]1NC(=O)C[C@H](CCCN)NC(=O)C[C@H](Cc1c[nH]c2ccccc12)NC(=O)[C@@H]1CCCC[C@H]1N,-2.3
COc1ccc(-c2nc3c(c4c2C[C@H](c2ccccc2)OC4)CN(C(=O)Nc2cccc(C#N)c2)CC3)c(C)c1,2.4
CC(C)[C@@H](CC(=O)N[C@@H]1CCCC[C@H]1C(=O)N[C@H](CC(=O)N[C@@H](CCC(=O)O)CC(=O)O)Cc1c[nH]c2ccccc12)NC(=O)C[C@H](Cc1ccccc1)NC(=O)[C@@H]1CNCC[C@H]1N,2.4
C=C[C@@]1(C)CC(=O)[C@@]2(O)[C@@]3(C)[C@@H](O)CCC(C)(C)[C@@H]3[C@H](O)[C@H](OC(C)=O)[C@@]2(C)O1,-0.7
NC(=O)c1ccc[n+]([C@@H]2O[C@H](COP(=O)([O-])OP(=O)(O)OC[C@H]3O[C@@H](n4cnc5c(N)ncnc54)[C@@H](O)[C@@H]3O)[C@@H](O)[C@@H]2O)c1,-2.6
NCCC[C@@H](CC(=O)N[C@@H]1CCNC[C@H]1C(=O)N[C@H](CC(=O)N[C@@H](CCC(=O)O)CC(=O)O)Cc1c[nH]c2ccccc12)NC(=O)C[C@H](Cc1c[nH]c2ccccc12)NC(=O)[C@@H]1CNCC[C@H]1N,1.4
Cn1cnc2c(NCc3ccccc3)nc(NCCO)nc21,2.7&0.2&-0.1
C[C@@H](C(=O)NCc1nc2ccccc2[nH]1)[C@@H]1C[C@@]1(C)[C@@H](NC(=O)OCc1ccccc1)c1ccccc1,2.0

Next records.
compound,GLA inh pH 4.5
O=C(/C=C/c1ccc(OCc2ccccc2)cc1)c1cccs1,-18.8
C#C[C@@]1(OC(C)=O)CC[C@@H]2[C@@H]3CCC4=C[C@@H](OC(C)=O)CC[C@H]4[C@H]3CC[C@]21C,-8.1
CC1(C)OC2CC3C4CCC5=CC(=O)CCC5(C)C4(F)C(O)CC3(C)[C@]2(C(=O)CCl)O1 (stereo not given in full),-12.3
CCCC[C@H](CC)CN=C(N)NC(N)=NCCCCCCN=C(N)NC(N)=NC[C@@H](CC)CCCC,1.6
O=C(NCC1CCCCC1)c1nnc(C(=O)NCC2CCCCC2)c2c1[nH]c1ccccc12,-0.8
O=C1OC(C(O)CO)C(O)=C1O (stereo not given),13.2
CC(C)C[C@@H](CC(=O)N[C@@H](CCC(=O)O)CC(=O)O)NC(=O)[C@@H]1CCCC[C@H]1NC(=O)C[C@H](CCCN)NC(=O)C[C@H](CO)NC(=O)[C@@H]1CCCC[C@H]1N,-0.5
NCC(=O)N[C@@H](CCCN=C(N)N)C(=O)NCC(=O)N[C@@H](CC(=O)O)C(=O)N[C@@H](CC(N)=O)C(=O)N1CC[C@@H](C(=O)O)C1,-17.9

The list goes on:
compound,GLA inh pH 4.5
COc1ccccc1-c1nc(NCc2cnc(C)cn2)c2ccccc2n1,-4.6
NC(Cc1ccc(Cl)cc1)C(=O)O (stereo not given),-1.8&1.1
CCN1CCCC1Cn1c(-c2ccccc2)nc2c(NCc3ccccc3)nc(C)nc21 (stereo not given),-13.6
COC(=O)CC[C@@H](C)[C@H]1CC[C@H]2[C@@H]3CC[C@@H]4C[C@H](O)CC[C@]4(C)[C@H]3C[C@H](O)[C@]12C,-13.6
COc1cc(C2CC(=O)Oc3cc(C)c(Cl)cc32)cc(OC)c1OC (stereo not given),-16.1
CC[C@H](C)[C@@H](NC(=O)O[C@@H]1Cc2cc(OC)ccc2O[C@H]1c1cccc(OC)c1)C(=O)OC,-6.4
CN1CCCC1CCO[C@@](C)(c1ccccc1)c1ccc(Cl)cc1 (stereo not given in full),-4.2
COc1ccc(-c2coc3c(OC)c(OC)cc(OC)c3c2=O)cc1,-0.1

(cont.)
compound,GLA inh pH 4.5
CCCn1c(C)nc2c(NCCN(C)C)nc(C)nc21,-3.4
CC(C)=CCC[C@](C)(O)C1CC=C(C)CC1 (stereo not given in full),-0.3
OC[C@H]1O[C@@H](n2cnc3c(N[C@H]4CC5CCC4C5)ncnc32)[C@H](O)[C@@H]1O (stereo not given in full),-5.2
C[C@@]1(O)C(O)[C@@H](CO)O[C@H]1n1cnc2c(NC3CCCC3)nc(Cl)nc21 (stereo not given in full),-19.2
C=C1CCC(O)C/C1=C/C=C1\CCC[C@@]2(C)C(C(C)/C=C/C(C)C(C)C)CC[C@@H]12 (stereo not given in full),5.7
CC(C)CCCC(C)C1CCC2C3C(=O)C=C4CC(O)CC[C@@]4(C)C3CC[C@@]12C (stereo not given in full),4.5
c1cncc(-c2nccc(-n3ccnc3)n2)c1,3.6
C[C@@]1(O)CCOC(=O)C1,-4.2

(continued)
compound,GLA inh pH 4.5
CC(C)=C1C(=O)C(c2ccccc2)=C2CN3C(=O)N(CCc4ccccc4)C(=O)[C@]3(Cc3ccccc3)[C@H]21,1.5
CN1CCN(c2cc(-c3ccc(N(C)C)cc3)ncn2)CC1,0.7
O=C(O)[C@H]1CN[C@H](C(=O)O)C1,-1.1
CCC[C@H]1C[C@H](C(=O)N[C@@H]([C@H]2O[C@@H](SC)[C@@H](O)[C@@H](O)[C@@H]2O)[C@H](C)Cl)N(C)C1,3.2
COc1cc(O)c(C)c(O)c1,?
O=C1NC(=O)c2cc(Nc3ccccc3)c(Nc3ccccc3)cc21,-9.4
O=C(/C=C/c1ccc2c(c1)OCO2)c1ccccc1,3.7
N#Cc1cccc(-c2cc(NCc3cccs3)ncn2)c1,3.1

The listing continues.
compound,GLA inh pH 4.5
CNC(=O)Oc1ccc2c(c1)[C@@]1(C)CCN(C)C1N2C (stereo not given in full),7.7&3.6&-0.2
CC1=C(\C=C/C(C)=C/C=C\C(C)=C\C(=O)O)C(C)(C)CCC1,-7.5&-6.0&3.6&-7.7
COC(=O)CC1C2(C)CC34OC5(C)O[C@@]6(C7/C(=C(/OC)C(C)C)C(=O)OC(c8ccoc8)[C@@]7(C)C(OC(=O)C(C)C)C(OC)[C@]6(O5)[C@@]13C)C(OC)[C@]4(OC)C2OC(C)=O (stereo not given in full),-8.3
CC(=O)Oc1cccc(C)c1,-15.7
CN(N=O)C(=O)N[C@H]1C(O)OC(CO)[C@@H](O)[C@H]1O (stereo not given in full),-6.1
COc1ccc2c(c1)C(=O)[C@@H](OC(=O)NCCc1ccc(OC)c(OC)c1)[C@H](c1ccc(OC)c(Br)c1)O2,-12.2

Screens deposited in PubChem BioAssay by National Center for Advancing Translational Sciences (NCATS).
